# Bioassay records as filed in PubChem BioAssay.
# MLL AF4-AF9 inh – inhibitors of AF4 peptide binding to AF9, primary screen, biochemical, AlphaScreen, biotin-AF4 peptide, FLAG-AF9, single point | Protein AF-9 (Homo sapiens), P42568 | inhibition, % at 10 µM | hit rate 0.47% among 350,000 | AID 651704, 2012;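 active means every replicate reaching a set inhibition limit, whatever the replicate mean, cut at about 25% in these data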;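 further: 0% = plate neutral control median and 100% = total signal loss; the record names both 10 and 1 µM as test concentration; the first replicate is given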
# Target sequence (P42568 whole entry, looked up): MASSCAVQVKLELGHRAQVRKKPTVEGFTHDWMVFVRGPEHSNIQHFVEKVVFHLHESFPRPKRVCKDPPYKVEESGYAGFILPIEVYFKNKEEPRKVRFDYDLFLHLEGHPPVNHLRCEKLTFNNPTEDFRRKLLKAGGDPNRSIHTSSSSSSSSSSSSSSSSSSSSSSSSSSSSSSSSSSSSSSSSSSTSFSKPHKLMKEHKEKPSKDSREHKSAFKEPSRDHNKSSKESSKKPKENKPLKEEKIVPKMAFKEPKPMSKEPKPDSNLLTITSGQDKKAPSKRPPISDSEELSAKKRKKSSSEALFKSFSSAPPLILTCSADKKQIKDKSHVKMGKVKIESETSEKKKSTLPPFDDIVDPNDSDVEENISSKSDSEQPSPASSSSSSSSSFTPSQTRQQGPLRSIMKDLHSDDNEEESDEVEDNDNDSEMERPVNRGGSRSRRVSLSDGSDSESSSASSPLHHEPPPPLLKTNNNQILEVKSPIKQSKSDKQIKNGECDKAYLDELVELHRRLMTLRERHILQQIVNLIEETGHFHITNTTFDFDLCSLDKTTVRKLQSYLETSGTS
# rRNA inh HTS – reduced GFP signal of wild-type E. coli, primary screen, bacterial rRNA inhibitor project, GFP/RFP fluorescence, OD600, single point | E. coli WT GFP vs humanized-ribosome RFP mutants, 24 h; stronger effect = lower value; DMSO median 0, no signal -100 | GFP signal change (wild-type ribosome), % (concentration not given with the values) | hit rate 1.6% among 350,000 | AID 720706, 2013;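 active means significant combined selectivity score with lowered wild-type GFP, culture density cut under 30%, mutant RFP and density less affected; inactive means any of these conditions unmet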; further: one replicate is shown; some compounds called inactive have numbers as strong as hits
# rRNA inh HTS OD600 – also measured in rRNA inh HTS; calls as there; OD600 change, %; measured here: OD600 growth;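 optical density of the mix in the first replicate; 0 = DMSO median and -100 = no signal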
# rRNA inh HTS RFP – second read-out of rRNA inh HTS, no call of its own (marks repeat the call); RFP signal change, %; measured here: RFP humanized mutant strains;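 first replicate; 0 = DMSO median and -100 = no signal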
# * marks the source's active call; other numbers are inactive results; & = joins results of further samples. Some of the compounds tested; the hit share may differ from the screen's.
SMILES,MLL AF4-AF9 inh,rRNA inh HTS,rRNA inh HTS OD600,rRNA inh HTS RFP
O=C(CN1CCOCC1)NCC[C@H]1CC[C@@H](NC(=O)Nc2ccccc2)[C@@H](CO)O1,-1.1,4.9,1.6,-1.6
C[C@H]1CN([C@@H](C)CO)C(=O)c2cccc(NC(=O)Nc3ccc(F)cc3)c2O[C@@H]1CN(C)S(=O)(=O)c1ccc(Cl)cc1,-7.2,1.3,-3.4,-3.0
C[C@H]1CN([C@@H](C)CO)C(=O)c2cc(NS(=O)(=O)c3ccc(F)cc3)ccc2O[C@@H]1CN(C)S(=O)(=O)c1cn(C)cn1,-2.2,2.8,5.7,-2.7
C[C@H]1CN([C@@H](C)CO)C(=O)c2cc(NS(=O)(=O)c3ccc(Cl)cc3)ccc2O[C@H]1CN(C)CC1CCCCC1,-0.2,3.4,-5.7,0.6
O=C(C[C@H]1CC[C@H]2[C@@H](COC[C@H](O)CN2Cc2ccncc2)O1)NCC1CC1,-2.0,0.0,-0.5,-5.4
CCc1nc2ccc(C(=O)N3CCN(C(=O)c4ccco4)CC3)cn2c1N(CC)Cc1cccc(Br)c1,8.2,-41.2,-66.7,-13.0
O=C(C1CCCC1)N1CC(=O)N2[C@H](C1)[C@H](c1ccc(C#CCc3ccccc3)cc1)[C@@H]2CO,7.5,-6.8,-22.7,4.2
C[C@@H]1CN([C@H](C)CO)C(=O)c2cc(C3=CCCCC3)cnc2O[C@H]1CN(C)C(=O)c1cccc(F)c1,-1.5,-7.1,-10.3,1.6
C[C@@H]1CN([C@H](C)CO)C(=O)CCCn2cc(nn2)CO[C@H]1CN(C)S(=O)(=O)c1ccc(-c2ccccc2)cc1,-0.5&0.5,-4.7,-1.3,1.4
COc1cc(NC(=O)Nc2nc(C(N)C3CCCCC3)cs2)cc(OC)c1OC (configuration not stated),19.7,-4.4,-8.2,7.8
C[C@H](CO)N1C[C@H](C)[C@@H](CN(C)S(=O)(=O)c2ccc(Cl)cc2)Oc2c(NC(=O)Nc3ccc(F)cc3)cccc2C1=O,-7.8,-0.6,-20.2,1.2
C[C@@H]1CN([C@@H](C)CO)C(=O)c2cc(NC(=O)CCC(F)(F)F)ccc2O[C@@H](C)CCCCO[C@@H]1CN(C)C(=O)Nc1ccc(C(F)(F)F)cc1,-2.0,0.7,-11.0,-3.7
Cc1noc(C)c1S(=O)(=O)Nc1ccc2c(c1)CC(=O)N([C@@H](C)CO)C[C@H](C)[C@@H](CN(C)CC1CCCCC1)O2,0.0,-3.6,-12.9,1.0
COc1ccc2c3c([nH]c2c1)[C@@H](CO)N(C(C)=O)CC31CCN(C(=O)Nc2ccccc2F)CC1,0.3,-1.2,-1.7,-3.8
C[C@@H]1CCCCO[C@@H](CN(C)C(=O)c2ccccc2)[C@H](C)CN([C@H](C)CO)C(=O)c2cc(NS(=O)(=O)c3ccc(F)cc3)ccc2O1,1.2,-3.3,-12.3,0.8
C[C@@H]1CN([C@H](C)CO)C(=O)c2cc(NC(=O)c3ccccc3)ccc2O[C@@H](C)CCCCO[C@H]1CN(C)C(=O)Nc1ccc(F)cc1,1.7,-1.8,2.9,3.6
c1ccc(CN2CCC3CC2c2c3cccc2N2CCOCC2)cc1 (configuration not stated),-3.0,7.9,9.6,3.3
Cc1ccc(S(=O)(=O)Nc2ccc3c(c2)CC(=O)N([C@H](C)CO)C[C@@H](C)[C@H](CN(C)S(=O)(=O)c2ccc(C)cc2)O3)cc1,-0.9,-0.8,-2.9,4.8
CC(C)NC(=O)Nc1cccc2c1O[C@H](CN(C)S(=O)(=O)c1cn(C)cn1)[C@@H](C)CN([C@@H](C)CO)C2=O,-0.1,3.2,2.8,0.4
O=C(c1ccccc1)N1CC(=O)N2[C@@H](CO)[C@H](c3ccc(C4=CCCC4)cc3)[C@@H]2C1,-2.7,1.8,-4.4,2.8
COc1ccc(CN(C)C[C@H]2Oc3c(NC(=O)Nc4ccc(C(F)(F)F)cc4)cccc3C(=O)N([C@@H](C)CO)C[C@@H]2C)cc1,3.2,-1.0,3.3,-1.0
CCN(CC)c1ncnc2c1ncn2[C@H]1CN(Cc2cc(OC)c(OC)c(OC)c2)C[C@@H](CO)O1,0.4,5.4,3.8,2.1
C[C@H](CO)N1C[C@H](C)[C@@H](CN(C)S(=O)(=O)c2ccc(Cl)cc2)Oc2c(NS(=O)(=O)c3ccc(F)cc3)cccc2C1=O,-1.6,0.1,-4.1,-1.8
C[C@@H]1CN([C@@H](C)CO)C(=O)c2cc(NC(=O)C3CCCCC3)ccc2O[C@@H]1CN(C)CC1CC1,1.5,1.8,0.8,0.6
COc1ccccc1C#Cc1cnc2c(c1)C(=O)N([C@@H](C)CO)C[C@H](C)[C@@H](CN(C)C)O2,21.1,1.7,8.2,1.8
CNC[C@H]1Oc2cc(C#Cc3ccncc3)ccc2S(=O)(=O)N([C@H](C)CO)C[C@H]1C,0.2,2.4,0.5,2.7
C[C@H]1CN([C@@H](C)CO)C(=O)c2cc(/C=C/c3ccccc3)cnc2O[C@@H]1CN(C)C(=O)c1ccncc1,0.2,-5.1,2.3,-0.4
O=C(c1ccccc1F)N1C[C@H]2[C@@H](c3ccccc31)[C@H](CO)N2Cc1ccc2c(c1)OCO2,3.5,-2.8,-6.8,4.7
C[C@@H]1CCCCO[C@@H](CN(C)S(C)(=O)=O)[C@@H](C)CN([C@H](C)CO)C(=O)c2cc(NC(=O)Nc3ccc4c(c3)OCO4)ccc2O1,-4.7,-2.6,1.2,-1.8
CCCNC(=O)N1CC(=O)N2[C@H](CO)[C@@H](c3ccc(C#CCC4CCCC4)cc3)[C@H]2C1,3.9,-50.2,-73.6,-8.1
C[C@@H]1CN([C@H](C)CO)C(=O)c2cccc(NS(=O)(=O)c3ccc(Cl)cc3)c2O[C@H]1CN(C)Cc1ccc(C(=O)O)cc1,2.3,3.8,16.2,-0.1
CO[C@H](CN(C)Cc1ccc(-c2ccccn2)cc1)[C@@H](C)CN(C(=O)Nc1ccc(F)cc1)[C@@H](C)CO,2.3,-2.0,7.9,2.6
C[C@@H]1CN([C@H](C)CO)C(=O)c2cc(-c3ccc(C#N)cc3)cnc2O[C@H]1CN(C)C(=O)CN(C)C,-2.3,-0.4,-2.2,0.7
N#Cc1ccc(-c2ccc([C@@H]3[C@@H](CO)N4C(=O)CN(C(=O)C5CCC5)C[C@H]34)cc2)cc1,-1.3,-4.4,-4.0,-3.6
C/C=C/c1ccc2c(c1)O[C@@H](CN(C)Cc1cccc(F)c1)[C@H](C)CN([C@H](C)CO)S2(=O)=O,13.0,-20.4,-32.1,21.6
CO[C@@H](C(=O)N(C)C[C@H]1OCc2ccccc2-c2ccccc2C(=O)N([C@@H](C)CO)C[C@@H]1C)c1ccccc1,-3.3,0.1,1.0,-0.4
O=C(CN1CCOCC1)N1CC(=O)N2[C@H](CO)[C@H](c3ccc(-c4cccc(F)c4)cc3)[C@@H]2C1,0.1,-1.0,0.8,-2.2
O=C(C[C@@H]1CC[C@H](NC(=O)c2ccccn2)[C@H](CO)O1)NCc1cc(F)cc(F)c1,-0.1,-0.1,-4.9,-0.8
CN(C)C(=O)[C@H]1[C@H](CO)[C@H]2Cn3c(ccc(-c4ccc(F)cc4)c3=O)[C@H]2N1C(=O)c1ccccn1,-15.2,3.2,9.5,0.3
COc1ccc(CN2C(=O)CCC2(C)c2nnnn2-c2c(C)cccc2C)cc1 (configuration not stated),0.7,2.4,-8.2,0.7
C[C@H]1CN([C@@H](C)CO)C(=O)c2cc(NC(=O)CCCN(C)C)ccc2O[C@@H]1CN(C)C,-2.6,2.9,-0.9,0.9
COc1ccc(NC(=O)N(C)C[C@@H]2Oc3ccc(NC(=O)Nc4ccc(F)cc4)cc3C(=O)N([C@H](C)CO)C[C@H]2C)cc1,0.3,5.2,9.5,-0.5
CO[C@@H]1CN(C)C(=O)c2ccc(NC(=O)c3ccccc3)cc2OC[C@H](C)N(CC2CC2)C[C@H]1C,-1.9,0.8,-4.4,-0.7
CCNC(=O)C[C@H]1CC[C@H]2[C@H](COc3ccc(NC(=O)c4cscn4)cc3C(=O)N2C)O1,-21.9,3.1,3.4,-2.4
CO[C@H](CN(C)S(=O)(=O)c1cccc(Cl)c1)[C@H](C)CN([C@@H](C)CO)S(=O)(=O)c1ccc(Cl)cc1,0.3,-1.0,-23.0,29.5
COc1ccc2c3c(n(C)c2c1)[C@@H](CO)N(C(=O)c1ccncc1)CC31CN(S(C)(=O)=O)C1,2.7,-0.3,-0.4,-2.1
C[C@@H]1CN([C@H](C)CO)C(=O)c2cc(NC(=O)CCC(F)(F)F)ccc2O[C@@H]1CN(C)C(=O)Nc1cccc2ccccc12,-2.1,-0.5,-0.4,1.7
C[C@@H]1CN([C@@H](C)CO)C(=O)c2cc(Br)cnc2O[C@H]1CN(C)Cc1ccccn1,-2.7,3.0,16.6,-3.3
COc1ccccc1NC(=O)N[C@@H]1CC[C@@H](CC(=O)N[C@H](C)c2ccccc2)O[C@@H]1CO,-0.4,1.1,3.3,-0.6
CCNC(=O)C[C@@H]1CC[C@H]2[C@@H](COc3ccc(NC(=O)Nc4ccccc4OC)cc3C(=O)N2C)O1,-0.9,-0.9,4.0,-2.3
COc1ccc2[nH]cc(CCNC(=O)/C=C/[C@H]3O[C@@H](n4cnc5c(NC(=O)c6ccccc6)ncnc54)[C@H](O)[C@@H]3O)c2c1,2.3,-2.2,-1.4,0.4
CN1CCN(C(=O)C[C@@H]2CC[C@H]3[C@H](COc4ccc(NC(=O)C5CCC5)cc4C(=O)N3C)O2)CC1,-4.8,-0.2,5.8,-3.7
CC(C)NC(=O)Nc1cccc2c1O[C@H](CN(C)S(=O)(=O)c1ccccc1)[C@H](C)CN([C@H](C)CO)C2=O,-0.9,-2.2,-1.7,1.3
CC(C)NC(=O)N(C)C[C@@H]1Oc2ncc(C#Cc3ccccc3F)cc2C(=O)N([C@@H](C)CO)C[C@H]1C,-3.1,2.6,7.0,-3.6
C[C@H]1CN([C@@H](C)CO)C(=O)c2cc(NC(=O)c3ccncc3)ccc2O[C@@H]1CN(C)Cc1ccccc1,-3.1,2.4,8.1,-1.1
CC=Cc1ccc2n(c1=O)C[C@@H]1[C@@H](CO)[C@H](C(=O)Nc3nccs3)N(Cc3ccccc3F)[C@H]21 (mixture of isomers),1.6,-1.9,-6.5,2.7
CN(C)c1ccc(CC(=O)N2CCCCC2c2cc(C(=O)Nc3cccc4c3CCCC4)no2)cc1 (configuration not stated),5.9,-8.0,-5.6,6.4
C[C@@H]1CN([C@@H](C)CO)C(=O)c2cc(C#CCN(C)C)cnc2O[C@@H]1CN(C)Cc1ccccc1,-3.3,2.3,1.7,-2.3
C[C@@H]1CN([C@@H](C)CO)C(=O)c2c(c3ccccc3n2C)-c2ccccc2CO[C@@H]1CN(C)Cc1ccc2c(c1)OCO2,5.2,2.9,-5.9,4.5
OCC[C@@H]1C[C@H](O)[C@@H](O)[C@@]2(OCCCc3cc(Cl)ccc32)O1,-6.5,-0.3,-1.3,5.3

# Four records picked at random from the list so far, as already listed:
SMILES,MLL AF4-AF9 inh,rRNA inh HTS,rRNA inh HTS OD600,rRNA inh HTS RFP
CC(C)NC(=O)N(C)C[C@@H]1Oc2ncc(C#Cc3ccccc3F)cc2C(=O)N([C@@H](C)CO)C[C@H]1C,-3.1,2.6,7.0,-3.6
C[C@@H]1CN([C@@H](C)CO)C(=O)c2cc(Br)cnc2O[C@H]1CN(C)Cc1ccccn1,-2.7,3.0,16.6,-3.3
CCNC(=O)C[C@@H]1CC[C@H]2[C@@H](COc3ccc(NC(=O)Nc4ccccc4OC)cc3C(=O)N2C)O1,-0.9,-0.9,4.0,-2.3
C[C@@H]1CN([C@@H](C)CO)C(=O)c2cc(C#CCN(C)C)cnc2O[C@@H]1CN(C)Cc1ccccc1,-3.3,2.3,1.7,-2.3

# (next part)
SMILES,MLL AF4-AF9 inh,rRNA inh HTS,rRNA inh HTS OD600,rRNA inh HTS RFP
C[C@H](CO)N1C[C@H](C)[C@@H](CN(C)C(=O)Nc2cccc(F)c2)OCc2ccccc2-c2c(n(C)c3ccccc23)C1=O,4.3,-14.7,-14.9,19.6
O=c1ccn([C@@H]2O[C@H](CNCc3c(OCc4ccccc4F)ccc4ccccc34)[C@@H](O)[C@H]2O)c(=O)[nH]1,2.6,1.5,-7.3,-0.6
CO[C@H]1CN(C)C(=O)c2ccc(NC(=O)NC(C)C)cc2OC[C@@H](C)N(C(=O)NC(C)C)C[C@H]1C,0.7,1.2,-3.9,-1.0
Cc1ccc(S(=O)(=O)N2CCOCC2)cc1NC(=O)CSc1nnc(COc2ccccc2F)n1N,-12.4,4.5,-2.8,-4.1
CN(C)C(=O)c1ccc(-c2ccccc2[C@H]2[C@H](C#N)N(C(=O)C3CCC3)[C@H]2CO)cc1,-1.0,1.2,1.3,-2.9
Cc1ccc(S(=O)(=O)Nc2ccc3c(c2)C(=O)N([C@@H](C)CO)C[C@H](C)[C@@H](CN(C)S(=O)(=O)c2cccs2)OCCCC[C@@H](C)O3)cc1,1.7,0.1,0.3,-2.2
CC(C)C(=O)N1CCC1(C)C(=O)Nc1cc(-c2ccccc2)nn1C (configuration not stated),-2.2,7.8,7.2,1.2
N#Cc1ccc2nc(-c3ccc(CN4CCC5(CC4)CNc4ccccc45)cc3)c(-c3ccccc3)nc2c1,-7.7,11.0,21.0,7.9
